Screening data from PubChem.
ClpP mod = qHTS Assay for Activators of ClpP; 1.9% of 340,000 active; Potency, µM (titrated, usually from 57.5 µM), for the others: at the highest dose activity change, negative = active; purified B. subtilis ClpP, FRET peptide cleavage, 20 min; active = well fitted falling curve with a large enough effect; inconclusive = small, poorly fitted or top-dose-only effect; inactive = no such curve, though single readings can be large or run the other way; note: potency is the fitted concentration of half-maximal effect; the source files actives as falling curves though it sought activators and does not explain the sign; nearly all actives have a fitted effect of over 65% in size; many hits overshoot -100%
Target sequence (P80244 whole entry, looked up): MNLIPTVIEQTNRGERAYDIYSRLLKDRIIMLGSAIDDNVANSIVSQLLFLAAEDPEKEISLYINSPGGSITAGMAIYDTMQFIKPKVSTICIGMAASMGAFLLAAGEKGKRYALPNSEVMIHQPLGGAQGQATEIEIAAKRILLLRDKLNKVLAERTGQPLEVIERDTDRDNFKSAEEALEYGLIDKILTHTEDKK
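FRET quenching reversal measured ClpP activation: 10 microg/mL B. subtilis ClpP at pH 8 with the FRET-FV decapeptide, read at 430 nm after 320 nm excitation. The 20-min minus 0-min signal was scaled between DMSO/no-enzyme wells and ADEP (5.8 microM final).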
D2 PAM = human D2 receptor positive allosteric modulation; P14416; DiscoveRx D2 beta-arrestin cells, luminescence, 90 min; 100% = 57 uM dopamine signal; potentiation, % (no concentration beside the values); 0.23% of 360,000 active; AID 624464; active = potentiation of 50% or more; inconclusive = 30% to 50%; inactive = 30% or less;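 note: compound concentration not given in the record; tested on top of an EC20 dose of dopamine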
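D2 cells co-treated with compound plus 50 nM dopamine (EC20) for 90 min at 37 deg C to detect potentiation. Beta-arrestin recruitment was read as enzyme-fragment luminescence after 1 h at ambient temperature. Full response was set by 57 uM dopamine.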
TRPV1 potentiator = potentiators of human vanilloid receptor 1 (TRPV1). Q8NER1. TRPV1-expressing cells, Fluo-8 calcium influx, capsaicin EC20 potentiation; host cell line not named in the record; control for the full effect not named in the record. potentiation, % at 8.33 µM. 0.02% of 320,000 active. AID 540277; active means potentiation above 80%; inconclusive means 30% to 80%; inactive means below 30%; note: 0% is about no effect
Target sequence (Q8NER1 whole entry, looked up): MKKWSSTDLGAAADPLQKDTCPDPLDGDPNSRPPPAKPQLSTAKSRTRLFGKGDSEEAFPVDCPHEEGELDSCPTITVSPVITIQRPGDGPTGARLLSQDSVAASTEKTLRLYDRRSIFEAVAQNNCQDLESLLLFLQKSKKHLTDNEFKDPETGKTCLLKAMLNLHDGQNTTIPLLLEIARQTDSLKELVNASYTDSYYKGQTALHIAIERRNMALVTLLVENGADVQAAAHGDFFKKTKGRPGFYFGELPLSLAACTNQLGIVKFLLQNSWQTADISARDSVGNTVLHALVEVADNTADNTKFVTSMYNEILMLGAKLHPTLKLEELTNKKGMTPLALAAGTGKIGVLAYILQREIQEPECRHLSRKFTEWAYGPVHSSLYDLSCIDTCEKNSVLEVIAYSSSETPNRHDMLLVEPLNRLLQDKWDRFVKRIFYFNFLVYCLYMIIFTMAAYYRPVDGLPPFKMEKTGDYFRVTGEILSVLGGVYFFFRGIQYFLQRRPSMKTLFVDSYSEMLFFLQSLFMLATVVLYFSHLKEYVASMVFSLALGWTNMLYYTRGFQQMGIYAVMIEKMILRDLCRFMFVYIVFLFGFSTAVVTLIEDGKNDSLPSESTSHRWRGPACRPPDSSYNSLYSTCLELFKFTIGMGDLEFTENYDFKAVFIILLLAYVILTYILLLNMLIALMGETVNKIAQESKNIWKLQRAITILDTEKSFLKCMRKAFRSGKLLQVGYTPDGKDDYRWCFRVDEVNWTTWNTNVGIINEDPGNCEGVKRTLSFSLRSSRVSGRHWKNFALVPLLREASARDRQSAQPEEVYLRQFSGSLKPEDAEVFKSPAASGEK
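Cells expressing TRPV1 were dye-loaded with Fluo-8 and read kinetically: 10 s baseline, 3 min after compound (agonist portion), then 2 min after EC20 capsaicin (allosteric enhancer portion). Calcium-bound dye fluorescence at 480/520 nm.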
gsp ag = activates gsp, the McCune-Albright syndrome mutation | Potency, µM (top dose mostly 76.9 µM), without a hit: top-dose activation (cAMP increase), actives largely listed as activators | gsp mutant cells, cAMP HTRF, 30 min; control for the full effect not named in the record | 0.13% of 340,000 active | AID 624287; active = well fitted activation curve with a large enough effect; inconclusive = small, poorly fitted or top-dose-only effect, or another doubt; inactive = no such curve, though single readings can be large or run the other way; cell line not stated here;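 note: phosphodiesterase inhibitor Ro 20-1724 added with compounds to block cAMP breakdown; potency is the fitted concentration of half-maximal effect; nearly all actives have a fitted effect of over 60% in size; about a fifth of the inactives were tested at one dose only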
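Cells in DMEM/10% FBS with G418 were pretreated with compounds in DMSO plus […] (300 uM stock) for 30 min at 37C. cAMP was measured by HTRF (cAMP-d2 plus anti-cAMP antibody-K) after 30 min at room temperature.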
Sfp inh = Sfp phosphopantetheinyl transferase inhibition | Q9F4F7 | Biochemical Sfp PPTase activity, qHTS | Potency, µM, without a hit: max response, negative = inhibition, most hits filed as inhibitors | 3.5% of 310,000 active | AID 1490; active = well fitted inhibition curve with a large enough effect; inconclusive = small, poorly fitted or top-dose-only effect, or another doubt; inactive = no such curve, though single readings can be large or run the other way;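 note: the enzyme is Sfp with the accession as filed and its product quenches rhodamine fluorescence; potency is the fitted concentration of half-maximal effect; 0% = enzyme reaction without inhibitor and -100% = no enzyme wells; top concentration of the series not given in the record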
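Fluorescence-quenching assay: 15 nM Sfp-PPTase preincubated 15 min at room temperature with compound, then 5 uM rhodamine-CoA and 12.5 uM BHQ-2-labelled YbbR peptide added. Fluorescence (ex 525/em 598 nm) read at start and after 30 min; difference gives rate.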
gsp antag = antagonizes gsp, the McCune-Albright syndrome mutation | gsp-mutant cells, cAMP HTRF, 30 min; control for the full effect not named in the record | Potency, µM (series often up to 76.9 µM), for the others: at the top dose activity change, negative = inhibition, actives largely listed as inhibitors | 0.4% of 340,000 active | AID 624288; active = falling curve of any shape with a large fitted effect; inconclusive = falling curve, mostly with a smaller effect; inactive = flat or rising curve; cell line not stated here;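 note: intracellular cAMP measured with PDE inhibitor Ro 20-1724 present during compound exposure; potency is the fitted concentration of half-maximal effect; % is set by controls: 0 for no effect and ±100 for the full control effect; nearly all actives have a fitted effect of over 65% in size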
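Cells in G418 medium, seeded 16-24 h, 37C; buffer exchange to DPBS + 1 mM CaCl2, 0.5 mM MgCl2, 0.05% BSA; cpds in DMSO + […] (300 uM stock), 30 min 37C; HTRF cAMP detection.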
Menin-MLL FL inh = menin-MLL binding inhibition, fluorescein peptide; 290,000 tested, under 10 active; Fluorescence polarization, fluorescein-MLL peptide displacement from menin; AID 1766; FP activity change, % at 61.4 µM; inconclusive = falling polarisation curve, or a change in total fluorescence; inactive = total fluorescence flat and polarisation flat or rising; no compound was filed as active; the % refers to the polarisation; negative = inhibition;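 note: % of control where 0% means no effect; inhibitors lower the polarisation; unlabelled MLL peptide was the positive control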
Numbers without * were called inactive; ? = inconclusive; / = no result given; & = joins results of further samples; [ ] = dose if it differs, or a comment.

Values run as follows: ClpP mod, D2 PAM, TRPV1 potentiator, gsp ag, Sfp inh, gsp antag, Menin-MLL FL inh
> Cc1cccc(N(Cc2ccc(Cl)cc2)S(C)(=O)=O)c1
  /, -2, -2, 8%, 6%, -9%, -0.9
> COc1cc(OC)c(OC)cc1C=Cc1ccc2ccccc2n1
  ?, -15, /, -4%, /, /, /
> COc1ccc(CSc2nc3ccccc3[nH]2)cc1
  1.1%, -11, -24, 3%, 10%, 1%, 7.1
> O=C(CCS(=O)(=O)Cc1ccccc1F)NCc1ccccc1Cl
  /, -3, 30, 21%[15.4 µM], 5%, -1%, 5.6
> Cn1c(NCCCO)nc2c1c(=O)n(Cc1ccccc1F)c(=O)n2C
  0.8%, 6, 2, -12%, 14%, 10%, -0.2
> COc1ccccc1N1N=C(C(=O)c2ccccc2)C2C(=O)N(c3ccc(Br)cc3)C(=O)C21 (stereo not given)
  /, -2, 15, 10%[15.4 µM], 18%, 4%, ?
> C#CCOc1ccc(/C=C2/C(=O)ON=C2C)cc1OCC
  /, 2, 2, 13%, ?, 10%, -19
> CN(C(=O)CSc1nc(-c2ccccc2)c(-c2ccccc2)o1)C1CCS(=O)(=O)C1 (stereo not given)
  -21%, -1, -8, 14%, 6%, ?, -2.7
> CCCCCC(=O)N1CCN(CCN=CC2=C(O)CC(c3ccc(OC)cc3)CC2=O)CC1 (stereo not given)
  -0.6%&0.9%, -2&-15, 2, -40%&-35%[inhibitor], 2%, -8%&12%, 2.2
> O=C(O)CCCNC(=O)/C(=C\C=C\c1ccccc1)NC(=O)c1ccccc1Cl
  /, -2, 9, ?, -19%, -20%, 5.1
> CN(C)CCCN(C(=O)c1ccc(S(=O)(=O)N2CCCCCC2)cc1)c1nc2ccc(Br)cc2s1
  -4.9%, -20, -8, ?, 50µM*, 8%, 4.1
> CCn1c(SCc2ccc(F)cc2)nnc1-c1nn(-c2ccccc2)ccc1=O
  0.4%, -16, /, 0%, -5%, 2%[15.4 µM], 2.7
> O=C(c1cccc(NC2=NC3CS(=O)(=O)CC3S2)c1)N1CCN(c2cccc(Cl)c2)CC1 (stereo not given)
  -1.8%, -1, 4, ?, 1%, 0%, 0.8
> CCOC(=O)c1c(C)[nH]c(C2=NNC(=Nc3cccc(Cl)c3)SC2)c1C
  /, /, -1, /, ?, /, 9.1
> COc1ccc(CCNC(=O)c2cc3cc(F)ccc3nc2C)cc1OC
  /, 0, /, 29%, /, ?, /
> O=C1Nc2ccc(Cl)cc2C(C#CC2CC2)(C(F)(F)F)O1 (stereo not given)
  1.8%, -3, -2, /, 10%&18%, -17%, -2.1&-0.3
> N#Cc1c(N)nc2c(c1N)CC(=O)N2c1ccccc1-c1ccccc1
  2.7%, -28, 14, -43%[inhibitor], 5%, 8%, 1.4
> Cc1nnc(-c2cccc(Br)c2)c2cn(-c3ccc(Br)cc3)nc12
  0.9%, -27, -2, 4%, ?, ?, 2.7
> COc1ccc(NC(=O)c2cc(-c3ccc(OC)c(OC)c3)nc3ccccc23)c(OC)c1
  /, 2, -11, -25%, 3%, -19%, -2.5
> S=C(NCc1ccccc1)N1CCN(C(=S)NCc2ccccc2)CC1
  2.7%, -1, 1, -1%, /, 7%, /
> c1ccc(Cn2c(-c3cccs3)nc3nc4ccccc4nc32)cc1
  /, /, -2, /, 9%, /, -1.6
> O=C(CN1CCN(S(=O)(=O)c2ccccc2)CC1)Nc1ccc([N+](=O)[O-])cc1
  1.4%, -9, -14, -2%, 4%, 4%, -0.9
> CCn1ccc(C(=O)Nc2ncc(C)s2)n1
  -0.4%, -3, -21, 0%, -3%, -5%, /
> CN(Cc1ccccc1)Cc1nc2c([nH]1)c(=O)n(C)c(=O)n2C
  0.3%, 1, 3, 18%, -8%, 13%, -1.0
> CC(C)(C)c1cc(C(=O)N/N=C/c2ccncc2)n[nH]1
  0.7%, -6, 5, -19%, 20%, -4%, /
> Cn1c2ccccc2c2cc([N+](=O)[O-])ccc21
  1.2%, -26, 4, -5%[15.4 µM], -4%, -9%, 0.8
> CC1(C)Cc2c(sc(NC(=O)C(C)(C)C)c2C#N)C(C)(C)N1
  1.1%, 5, 25, -25%, -8%, 19%, 0.5
> Cc1cc(C)cc(N(C(=O)c2nsc(Cl)c2Cl)C(C(=O)NC2CCCC2)c2ccc(O)cc2)c1 (stereo not given)
  1.9%, -3, -11, -30%, 4%, -19%, 0.3
> O=C(CN(C(=O)c1ccc(Cl)cc1)N1C(=O)C2C3C=CC(C3)C2C1=O)c1cccs1 (stereo not given)
  2.0%, 2, -14, -6%, 11%, -12%, -0.9
> O=S(=O)(NC1CCCCC1N1CCCCC1)c1ccccc1 (stereo not given)
  0.8%, -7, -17, 4%, 10%, 4%, -0.1
> C/C(=N\NC(=O)c1ccc(CN2CCOCC2)cc1)c1cccc([N+](=O)[O-])c1
  -1.1%, -5, -9, 1%, 5%, -2%, -2.2
> O=C(c1ccc([N+](=O)[O-])o1)N1CCN(c2nc3c(Cl)cccc3s2)CC1
  0.4%, 69*, -8, 4%[15.4 µM], /, -16%, /
> Cc1ccc(-c2csc(NCCc3nc4cc(Cl)c(Cl)cc4n3CCOCCO)n2)cc1
  -0.1%, -3, /, -13%, /, -17%, /
> CC(C)NC(=O)N1CCC(n2nccc2NC(=O)CCOc2ccccc2)CC1
  0.8%, 0, -5, ?, 7%, 6%, /
> CCOC(=O)C1=C(COC(=O)CCOc2ccc(OC)cc2)NC(=O)NC1C (stereo not given)
  0.7%, 4, -3, -63%[inhibitor], /, -12%, /
> CN(C(=O)c1ccc(NC(=O)Cc2cccc(NC(=O)C3CCN(C(=O)c4ccccc4)CC3)c2)cc1)C1CC1
  -1.0%, -3, /, /, /, 6%, /
> COc1cc(/C=N/Nc2ccc(Cl)c(C(=O)O)c2)ccc1OCC(=O)N1C(C)CCCC1C (stereo not given)
  0.9%, -4, 26, 6%[15.4 µM], 5%, -12%, -0.3
> CCn1cc(C(=O)NCc2ccccc2F)c(=O)c2ccc(C)nc21
  1.9%, -6, -4, -2%[15.4 µM], 10%, 19%, 0.0
> CCc1nc(CNC(=O)C2CCC(=O)N(Cc3cccc(OC)c3)C2)no1 (stereo not given)
  -2.2%, -1, -6, -8%, 2%, -12%, 0.5
> Cc1cc(C)nc(CCNC(=O)c2cc(COc3c(F)cccc3F)on2)n1
  /, -2, 4, -3%[15.4 µM], 10%, 7%, -0.3
> COc1ccc(NC(=S)NC(NC(=O)/C=C/c2ccccc2)C(Cl)(Cl)Cl)cc1 (stereo not given)
  -0.1%, 0, -2, -24%, 34%[activator], ?, 1.0
> Cc1c(CC(=O)NCC(C)C)c(=O)oc2cc3c(cc12)CCC(C)(C)O3
  3.6%, -12, -10, 30%, 17%, -5%, -1.7
> O=C(CN1CCC(O)(c2ccc3c(c2)OCO3)CC1)N1CCOCC1
  -0.5%, 2, 11, -27%, 6%, -4%, 3.1
> Cc1ccc(C2CC(c3cccc(Br)c3)n3nc(N)nc3N2)cc1 (stereo not given)
  -1.4%, -5, -5, -24%, 28%, 0%, -2.9
> CC1COC(Cn2c3ccccc3c3ccccc32)O1 (stereo not given)
  /, -10, -3, -5%[15.4 µM], ?, 5%, 2.7
> C/C(=N\NC(=O)COc1ccc(C)cc1Br)c1cc([N+](=O)[O-])cs1
  /, 6, 13, -5%, 6%, -4%, 0.7
> CCOC(=O)C1=C(C)NC(=O)CC1c1ccccc1OC (stereo not given)
  -0.3%, -1, 2, -72%[inhibitor], 9%, 7%, -4.7
> Cc1ccc(CSCCNC(=O)/C=C/c2ccccc2Cl)cc1
  1.0%, -5, -5, 6%, 8%, -28%, -1.3
> COC(=O)[C@@H](NC(=O)c1ccccc1OC1CCN(S(C)(=O)=O)CC1)C(C)C
  /, -6, 4, 6%, 11%, -6%, 2.9
> CCc1cc2c(SCC(=O)N3CCN(C(=O)c4cccs4)CC3)ncnc2s1
  0.5%, -6, /, -30%, /, /, /
> Cc1cc(NS(=O)(=O)c2ccc(NC(=O)/C=C/c3c(F)cccc3Cl)cc2)nc(C)n1
  0.3%, -14, 3, ?, 8%, ?, -0.1
> O=C(CCS(=O)(=O)c1ccc(Cl)cc1)Nc1nc(-c2cccnc2)cs1
  0.8%, -5, -9, ?, 3%, 12%, 3.7
> CNCCCOc1ccc2c(c1)CCC2
  /, -11, 14, -2%, -6%, 5%, -2.6
> COC(=O)c1ccc(N=NNc2ccc(C(=O)OC)cc2)cc1
  1.8%, -1, -9, -8%[15.4 µM], 5%, 9%, /
> COc1cc(NS(=O)(=O)c2ccc(NC(=O)COc3ccccc3Cl)cc2)nc(OC)n1
  1.1%, -2, 0, -14%, -11%, -5%, 1.0
> Nc1cccnc1Oc1ccc(F)cc1
  /, -5, 10, -23%[15.4 µM], 9%, 8%, -1.0
> O=c1c2ccccc2ncn1-c1ccc([N+](=O)[O-])cc1[N+](=O)[O-]
  /, 5, 1, -1%[15.4 µM], 13%, -5%, -6.0
> COc1cc(/C=C2/SC(N)=NC2=O)ccc1Oc1ccc([N+](=O)[O-])cc1[N+](=O)[O-]
  0.9%, 6, -12, -1%[15.4 µM], -10%, 5%, -2.3
> Cc1cc(NC(=O)COc2c(C)cccc2C)no1
  -1.0%, -19, -2, 8%, 7%, 8%, -3.1
> Nc1nnc(N2CCc3ccccc32)s1
  1.2%, 2, 4, 11%, -8%, -12%, 8.7

The results go on:
Values run as follows: ClpP mod, D2 PAM, TRPV1 potentiator, gsp ag, Sfp inh, gsp antag, Menin-MLL FL inh
> CC12COC3(C(N)=O)CC1CCC32C (stereo not given)
  1.4%, -1, 2, 9%, 19%, 0%, 5.4
> Cc1cc(NC(=O)c2cncc(Br)c2)n(-c2ccccn2)n1
  1.8%, -1, -6, -4%[15.4 µM], 2%, -12%, 0.2
> C=CCn1c(CCc2cc(C(C)(C)C)c(O)c(C(C)(C)C)c2)n[nH]c1=S
  /, -12, -23, 3%[15.4 µM], 13%, -35%, -4.2
> COc1ccccc1-c1oc2ccccc2c1-c1ccccc1OC
  4.8%, -12, /, ?, /, -18%, /
> CCOc1ccc(-c2noc(CCCC(=O)NCC3CCCO3)n2)cc1OC (stereo not given)
  -22%, 6, 10, 3%, 3%, 4%, /
